# Screens deposited in PubChem BioAssay by Broad Institute.
# Vaccinia inh = Vaccinia orthopox stage-specific inhibition; Vaccinia-infected cells, mCherry/Venus stage reporter fluorescence; stronger effect = lower value; some inactives read as strong as hits; activity change (mCherry), % (concentration not given with the values); hit rate 0.01% among 89,000;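 active = mCherry past -33% and 40 or more points under the early reporter, replicates agreeing; inconclusive = past -33% without that gap or agreement; tested in A549 cells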;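 also: scaled between vehicle wells and reference inhibitor wells; 23 nL library stock went into each well; one replicate is shown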
# Vaccinia inh Venus = further read-out of Vaccinia inh, marked with its call; activity change (Venus), %; measured here: Venus reporter, other viral stage;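 negative = less Venus signal; first of two replicates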
# * hit, by the source's call; ? = inconclusive; · = no result given. Only part of the results is shown (hit frequency here may not be typical).
Molecule	Vaccinia inh	Vaccinia inh Venus
CO[C@@H]1CN(C)C(=O)c2ccc(NC(=O)Nc3cccc(F)c3)cc2OC[C@@H](C)N(C(C)=O)C[C@@H]1C	9	12
CCC(=O)Nc1ccc2c(c1)C(=O)N(C)[C@H]1CC[C@@H](CC(=O)O)O[C@H]1CO2	-7	4
COCCNC(=O)C[C@@H]1CC[C@@H](NC(=O)NC2CCCCC2)[C@@H](CO)O1	4	4
CCN1[C@@H]2c3ccc(-c4ccccc4OC)c(=O)n3C[C@H]1[C@H](CO)[C@H]2C(=O)N1CCOCC1	15	10
COc1ccccc1C#Cc1ccc2c(c1)O[C@H](CN(C)C)[C@H](C)CN([C@@H](C)CO)S2(=O)=O	?	·
C[C@H](CO)N1C[C@H](C)[C@H](CN(C)S(=O)(=O)c2ccc(F)cc2)OCCCC[C@H](C)Oc2ccc(NC(=O)CCC(F)(F)F)cc2C1=O	-30	-22
C[C@H](CO)N1C[C@H](C)[C@H](CN(C)S(=O)(=O)c2cccs2)Oc2ccc(NC(=O)CCC(F)(F)F)cc2C1=O	-4	-10
CC(C)NC(=O)Nc1ccc2c(c1)C(=O)N([C@H](C)CO)C[C@@H](C)[C@H](CN(C)S(=O)(=O)c1ccc(F)cc1)O2	1	7
COc1ccc(NC(=O)N(C)C[C@@H]2Oc3ccc(NS(=O)(=O)c4ccc(F)cc4)cc3CC(=O)N([C@@H](C)CO)C[C@H]2C)cc1	8	1
CO[C@H]1CN(C)C(=O)c2ccc(NS(=O)(=O)c3ccccc3)cc2OC[C@H](C)N(Cc2nccs2)C[C@@H]1C	-4	-10
COc1ccc(CN(C)C[C@H]2Oc3ccc(NC(=O)NC(C)C)cc3C(=O)N([C@@H](C)CO)C[C@H]2C)cc1	8	5
O=C(C[C@@H]1C[C@H]2c3cc(NC(=O)Nc4ccc(C(F)(F)F)cc4)ccc3O[C@H]2[C@H](CO)O1)NCc1cccnc1	?	·
O=C(CC(F)(F)F)N1C[C@H]2[C@@H](c3ccccc31)[C@@H](CO)N2CC1CCCCC1	-7	-5
CNC[C@H]1Oc2c(NC(=O)Nc3c(C)noc3C)cccc2C(=O)N([C@@H](C)CO)C[C@@H]1C	15	5
CN1[C@@H]2c3ccc(/C=C/c4ccccc4)c(=O)n3C[C@H]1[C@H](CO)[C@H]2C(=O)NC1Cc2ccccc2C1	0	-2
CO[C@H]1CN(C)C(=O)c2ccc(NC(C)=O)cc2OC[C@@H](C)N(C(=O)c2ccc(F)cc2)C[C@@H]1C	8	8
COCC#Cc1ccc2c(c1)O[C@H](CN(C)Cc1cccnc1)[C@H](C)CN([C@H](C)CO)S2(=O)=O	11	5
CC(C)NC(=O)Nc1cccc2c1O[C@H](CN(C)C(=O)Nc1ccc(C(F)(F)F)cc1)[C@H](C)CN([C@H](C)CO)C2=O	-10	-6
O=C(C[C@H]1CC[C@@H]2NC[C@H](O)COC[C@H]2O1)NCCN1CCCCC1	18	23
O=C(NCC[C@H]1CC[C@H](NC(=O)c2cccnc2)[C@@H](CO)O1)Nc1ccc(C(F)(F)F)cc1	-15	-3
CO[C@H]1CN(C)C(=O)c2ccc(NC(=O)c3cnccn3)cc2OC[C@H](C)N(C(=O)C2CC2)C[C@@H]1C	9	11
COc1ccc(S(=O)(=O)Nc2ccc3c(c2)C(=O)N([C@H](C)CO)C[C@@H](C)[C@@H](CN(C)Cc2ccc(C(=O)O)cc2)O3)cc1	14	7
COc1cccc(S(=O)(=O)N2CCCCN3[C@@H](CO)[C@H](c4ccc(-c5cccnc5)cc4)[C@@H]3C2)c1	-9	-22
Cc1ccc(S(=O)(=O)Nc2ccc3c(c2)C(=O)N([C@H](C)CO)C[C@H](C)[C@H](CN(C)Cc2ccc4c(c2)OCO4)OCCCC[C@H](C)O3)cc1	?	·
Cc1cccc(S(=O)(=O)N2C[C@@H](O)COC[C@@H]3O[C@H](CC(=O)N4CCN(C)CC4)CC[C@H]32)c1	7	18
C[C@H]1CN([C@@H](C)CO)C(=O)c2cc(NS(C)(=O)=O)ccc2O[C@H]1CN(C)S(=O)(=O)c1cn(C)cn1	-7	-5
C[C@@H]1CN([C@@H](C)CO)C(=O)Cc2cc(NC(=O)C3CCCCC3)ccc2O[C@@H]1CN(C)C(=O)Nc1ccc(F)cc1	14	16
O=C(CN1CCOCC1)NCC[C@H]1CC[C@H](NS(=O)(=O)c2ccc(Cl)cc2)[C@H](CO)O1	-5	6
CCC(=O)Nc1ccc2c(c1)OC[C@H](C)N(CC1CCOCC1)C[C@H](C)[C@H](OC)CN(C)C2=O	-1	1
CN1c2ccc(Br)cc2[C@H]2[C@H](CCN2C(=O)C2CCCC2)[C@H]1CO	-19	-7
N#C[C@@H]1[C@H](c2ccc(-c3ccccc3F)cc2)[C@H](CO)N1C(=O)C1CCOCC1	-21	-15
Cc1ccc(-c2cnc3c(c2)C(=O)N([C@H](C)CO)C[C@@H](C)[C@@H](CN(C)C(=O)c2ccncc2)O3)cc1	7	10
COc1ccc(NC(=O)Nc2cccc3c2O[C@@H](CN(C)C(=O)NC(C)C)[C@H](C)CN([C@H](C)CO)C3=O)cc1	5	1
COCC#Cc1ccc2c(c1)O[C@@H](CN(C)C(=O)CC1CC1)[C@@H](C)CN([C@H](C)CO)S2(=O)=O	-8	-2
COc1ccc(S(=O)(=O)N2C[C@@H](O)COC[C@@H]3O[C@H](CC(=O)N[C@@H]4CCN(Cc5ccccc5)C4)CC[C@H]32)cc1	-13	-6
COc1ccccc1C#Cc1ccc([C@H]2[C@H]3CN(CCC(F)(F)F)CCCCN3[C@H]2CO)cc1	?	·
C[C@@H]1CN([C@H](C)CO)S(=O)(=O)c2ccc(C#Cc3ccncc3)cc2O[C@H]1CN(C)C(=O)Nc1ccc2c(c1)OCO2	?	·
O=C(c1ccc2c(c1)OCO2)N1C[C@@H]2[C@H](c3ccccc31)[C@@H](CO)N2C(=O)CC1CC1	7	-3
C[C@H](CO)N1C[C@H](C)[C@H](CN(C)C(=O)NC2CCCCC2)OCCCC[C@H](C)Oc2ccc(NS(=O)(=O)c3ccc(Cl)cc3)cc2C1=O	?	·
C[C@H]1CN([C@@H](C)CO)C(=O)c2cccc(NS(=O)(=O)c3ccccc3)c2O[C@@H]1CN(C)Cc1ccncc1	12	12
C[C@@H]1CN([C@H](C)CO)C(=O)c2c(c3ccccc3n2C)-c2ccccc2CO[C@@H]1CN(C)S(=O)(=O)c1ccc(C(F)(F)F)cc1	?	·
Cc1ccc(S(=O)(=O)NCC[C@H]2CC[C@@H](NC(=O)c3cccc(F)c3)[C@@H](CO)O2)cc1	-9	5
C[C@H](CO)N1C[C@H](C)[C@H](CN(C)Cc2ccc(C(F)(F)F)cc2)Oc2ccc(NC(=O)Nc3ccc(C(F)(F)F)cc3)cc2CC1=O	-34	-13
CCCNC(=O)[C@@H]1[C@@H](CO)[C@@H]2Cn3c(ccc(-c4cccc(F)c4)c3=O)[C@H]1N2CCC	2	-1
O=C(NCCCN1CCOCC1)[C@H]1[C@H](CO)[C@H]2Cn3c(cccc3=O)[C@@H]1N2C(=O)C1CCCC1	8	-1
Cc1noc(C)c1NC(=O)Nc1ccc2c(c1)C(=O)N([C@H](C)CO)C[C@H](C)[C@H](CN(C)CC1CC1)OCCCC[C@@H](C)O2	9	6
CCS(=O)(=O)N1[C@H](C#N)[C@@H](c2ccc(C#CCC3CCCC3)cc2)[C@@H]1CO	-16	-13
CCCNC(=O)N(C)C[C@H]1Oc2ncc(C#CCC3CCCC3)cc2C(=O)N([C@@H](C)CO)C[C@H]1C	-9	-7
O=C(C[C@H]1C[C@H]2c3cc(NS(=O)(=O)c4ccccc4)ccc3O[C@H]2[C@H](CO)O1)N1CCOCC1	-5	7
COc1ccc(S(=O)(=O)Nc2ccc3c(c2)C(=O)N([C@@H](C)CO)C[C@H](C)[C@H](CN(C)C(=O)CCCN(C)C)OCCCC[C@H](C)O3)cc1	13	4
CC(=O)N[C@@H]1C[C@@H]2O[C@H](CO)CC[C@@H]2O[C@@H]1CCc1ccc(-c2ccc(F)cc2)cc1	-16	-8
C/C=C/c1cnc2c(c1)C(=O)N([C@H](C)CO)C[C@H](C)[C@H](CN(C)S(=O)(=O)c1cn(C)cn1)O2	11	0
O=C(c1ccccn1)N1C[C@H]2[C@@H](c3ccccc31)[C@@H](CO)N2C(=O)Cc1ccccc1	6	5
Cc1ccc(-c2cnc3c(c2)C(=O)N([C@@H](C)CO)C[C@H](C)[C@H](CN(C)C(=O)Cc2ccncc2)O3)cc1	-16	-7
CN1c2ccc(-c3ccc(F)cc3)cc2[C@@H]2[C@@H](CCN2C(=O)c2ccncc2)[C@@H]1CO	-27	-27
COc1ccc(S(=O)(=O)N[C@H]2CC[C@@H](CC(=O)N3CCN(c4ccccc4)CC3)O[C@@H]2CO)cc1	-9	-5

# Among those listed so far, these have a cyano group.
Molecule	Vaccinia inh	Vaccinia inh Venus
N#C[C@@H]1[C@H](c2ccc(-c3ccccc3F)cc2)[C@H](CO)N1C(=O)C1CCOCC1	-21	-15
CCS(=O)(=O)N1[C@H](C#N)[C@@H](c2ccc(C#CCC3CCCC3)cc2)[C@@H]1CO	-16	-13

# Three consecutive compounds out of the list so far:
Molecule	Vaccinia inh	Vaccinia inh Venus
CO[C@H]1CN(C)C(=O)c2ccc(NS(=O)(=O)c3ccccc3)cc2OC[C@H](C)N(Cc2nccs2)C[C@@H]1C	-4	-10
COc1ccc(CN(C)C[C@H]2Oc3ccc(NC(=O)NC(C)C)cc3C(=O)N([C@@H](C)CO)C[C@H]2C)cc1	8	5
O=C(C[C@@H]1C[C@H]2c3cc(NC(=O)Nc4ccc(C(F)(F)F)cc4)ccc3O[C@H]2[C@H](CO)O1)NCc1cccnc1	?	·

# Other compounds follow:
Molecule	Vaccinia inh	Vaccinia inh Venus
C[C@H]1CN([C@@H](C)CO)C(=O)Cc2cc(NS(=O)(=O)c3ccc(F)cc3)ccc2O[C@H]1CN(C)S(=O)(=O)c1cn(C)cn1	7	7
CO[C@H]1CN(C)C(=O)c2ccc(NC(=O)c3ccc(F)cc3)cc2OC[C@@H](C)NC[C@H]1C	3	9
C[C@H](CO)N1C[C@H](C)[C@@H](CN(C)C(=O)Nc2ccc3c(c2)OCO3)Oc2c(NC(=O)c3ccncc3)cccc2C1=O	7	2
CCC(=O)N1CC(=O)N2[C@H](CO)[C@H](c3ccc(C#Cc4cccc(F)c4)cc3)[C@@H]2C1	2	-6
CCCNC(=O)N(C)C[C@H]1Oc2ncc(C3=CCCC3)cc2C(=O)N([C@H](C)CO)C[C@H]1C	-1	2
Cc1ccc(S(=O)(=O)N(C)C[C@H]2OCCCC[C@H](C)Oc3ccc(NC(=O)Nc4ccccc4)cc3C(=O)N([C@@H](C)CO)C[C@@H]2C)cc1	-17	4
CNC[C@H]1Oc2ccc(NS(=O)(=O)c3cn(C)cn3)cc2CC(=O)N([C@@H](C)CO)C[C@@H]1C	20	12
C[C@@H](NC(=O)C[C@@H]1C=C[C@H](NC(=O)Nc2ccc3c(c2)OCO3)[C@@H](CO)O1)c1ccccc1	-4	2

# The last two records of the section above open the next one:
Molecule	Vaccinia inh	Vaccinia inh Venus
CNC[C@H]1Oc2ccc(NS(=O)(=O)c3cn(C)cn3)cc2CC(=O)N([C@@H](C)CO)C[C@@H]1C	20	12
C[C@@H](NC(=O)C[C@@H]1C=C[C@H](NC(=O)Nc2ccc3c(c2)OCO3)[C@@H](CO)O1)c1ccccc1	-4	2
O=C(C[C@H]1C[C@H]2c3cc(NC(=O)C4CCOCC4)ccc3O[C@H]2[C@H](CO)O1)NCc1ccc2c(c1)OCO2	3	8
COc1ccccc1S(=O)(=O)N[C@H]1C=C[C@@H](CC(=O)N2CCN(C)CC2)O[C@@H]1CO	-18	-18
O=C(C[C@H]1CC[C@@H](NC(=O)Nc2cc(F)ccc2F)[C@H](CO)O1)Nc1ccccc1	-12	-3
COc1cccc(C#Cc2ccc3c(c2)O[C@H](CN(C)C(C)=O)[C@H](C)CN([C@H](C)CO)S3(=O)=O)c1	-15	-13
Cc1ccccc1-c1ccc([C@@H]2[C@@H](CO)N3CCCCN(C(=O)Cc4ccccn4)C[C@@H]23)cc1	-11	-13
C[C@H](CO)N1C[C@H](C)[C@H](CN(C)C(=O)Cc2ccccc2)OCCCC[C@H](C)Oc2ccc(NS(=O)(=O)c3ccccc3)cc2C1=O	-28	-27
COc1ccc(CNC(=O)C[C@@H]2C=C[C@@H](NC(=O)c3cccc(F)c3)[C@@H](CO)O2)cc1	-2	-5
COc1ccc(S(=O)(=O)N(C)C[C@@H]2Oc3ccc(NC(=O)C4CCCCC4)cc3C(=O)N([C@@H](C)CO)C[C@H]2C)cc1	9	3
Cc1noc(C)c1NC(=O)N(C)C[C@@H]1OCCCC[C@@H](C)Oc2ccc(NS(=O)(=O)c3ccc(F)cc3)cc2C(=O)N([C@H](C)CO)C[C@H]1C	17	13
Cc1ccc(S(=O)(=O)Nc2ccc3c(c2)C(=O)N([C@@H](C)CO)C[C@H](C)[C@H](CN(C)S(=O)(=O)c2cn(C)cn2)O3)cc1	15	20
Cc1noc(C)c1S(=O)(=O)N(C)C[C@H]1Oc2ccc(NS(=O)(=O)c3cn(C)cn3)cc2CC(=O)N([C@H](C)CO)C[C@@H]1C	-1	11
C[C@H](CO)N1C[C@H](C)[C@H](CN(C)C(=O)Nc2ccc(F)cc2)Oc2c(NC(=O)Nc3cccc4ccccc34)cccc2C1=O	?	·
O=C(C1CC1)N1CC2(C1)[C@H](c1ccccc1)[C@H](CO)N2C(=O)CC1CC1	17	12
CN1c2ccc(-c3ccc(F)cc3)cc2[C@H]2[C@H](CCN2C(=O)c2ccccn2)[C@@H]1CO	-17	-14
Cc1ccc(S(=O)(=O)N2C[C@@H]3O[C@@H](CNS(=O)(=O)c4ccccc4C)CC[C@@H]32)cc1	2	-4
